Screening data from PubChem.
Coupling enz: inhibits coupling enzyme system, counter-screen for aldolase hits | 290,000 compounds, 0.67% hits | coupling enzyme system counterscreen, AmpLite Red fluorescence | activity change, negative = inhibition, % at 58.2 µM, hits read low | AID 2472; in the data active means activity change below about -30%; further: on the % scale 0 is the no-effect control and ±100 the full control effect
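Counterscreen lacking aldolase: glyceraldehyde-3-phosphate coupling-enzyme reagent preincubated 10 min at RT with compound (at 57.5 uM final), then substrate/coupling system with AmpLite Red added; fluorescence read at 525/598 nm after 20 min RT.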
Tb PFK inh: blocks T. brucei phosphofructokinase; 330,000 compounds, 0.17% hits; Potency, µM (highest dose often 57.5 µM), for the others: top-dose activity, negative = inhibition, most hits filed as inhibitors; T. brucei PFK, ADP-Glo luminescence; O15648; AID 485367;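 further: potency means the concentration at half of the fitted maximal effect; 0% = uninhibited 1x PFK enzyme wells and -100% = no-enzyme wells; nearly all actives have a fitted effect of over 60% in size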
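In TEA buffer at pH 8.0 with 5 mM MgCl2, enzyme (1.25 nM) converted F6P (0.5 mM) and ATP (0.1 mM) for 45 min at room temperature. ADP product was read by luciferase luminescence.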
Chronic BCR inh: blocks chronic active B-cell receptor signaling. ABC-DLBCL IkBa-CBG/CBR reporter, luminescence ratio, 4 h. Potency, µM (series often up to 46.1 µM), for the others: top-dose ratio change, negative = lower green/red ratio, actives largely listed as inhibitors. 340,000 compounds, 0.05% hits; active means well fitted inhibition curve with a large enough effect in the signal ratio, with a control signal flat, not every such curve was filed as active; inconclusive means small, poorly fitted or top-dose-only effect, or effect the other way, or a change in a side signal; the % refers to the signal ratio;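 further: potency means the concentration at half of the fitted maximal effect; plate controls were basal doxycycline-induced cells for no effect and cells given 10 µM MG132 for full effect; MG132 reads +100%, hits lower the ratio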
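Concentration-response series (up to 46 uM) were applied to TMD8 dual-reporter cells for 4 h at 37C with doxycycline. Green/red ratio, after filter-overlap correction, defined %Activity; red signal alone was normalised to basal cells and zero luminescence.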
TCR act: activates T cell receptor signaling; 330,000 tested, under 10 active; Potency, µM (titrated, usually from 9.22 µM), without a hit: at the top dose activation of IL-2 secretion, actives largely listed as activators; primary human leukocytes, anti-CD3, IL-2 HTRF, 48 h; AID 504894; further: % of control where 0% means no effect
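48 hr co-incubation of compounds, a-CD3 beads and primary human leukocytes; IL-2 quantified homogeneously by HTRF with anti-IL-2 K and d2 conjugates.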
KCNH2 WT inh: KCNH2 (human, wildtype) channel inhibition. Q12809. U2OS, BacMam KCNH2, thallium flux FluxOr; hits give low values. activity change, % at 1.84 µM. 340,000 compounds, 0.37% hits. AID 720551;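 active means maximum activity change below -70%; inconclusive means maximum activity change between -70% and -50%; inactive means maximum activity change above -50%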; further: on the % scale 0 is the no-effect control and ±100 the full control effect
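U2OS cells transduced with wild-type KCNH2 virus are loaded with FluxOr dye for 45 min, and thallium flux is measured in kinetic reads before and after stimulation buffer. Rate constants are normalized to DMSO controls.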
AT treatment: potential ataxia-telangiectasia treatment. 320,000 compounds, 0.19% hits. AID 485349. […] A-T fibroblasts, KAP-1 phosphorylation AlphaLISA; neocarzinostatin DNA damage 30 min before lysis. Potency, µM (titrated, usually from 57.5 µM), for inactives: top-dose activation, usual class: activators; further: potency means the concentration at half of the fitted maximal effect; % of control where 0% means no effect; nearly all actives have a fitted effect of over 45% in size
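ATM-like activity read as KAP-1 phosphorylation via AlphaLISA donor/acceptor antibody pairs after lysis and 6 hr at 25C. Cells were ATM-null patient fibroblasts ([…], hTERT), dosed 60 min, then exposed to the DSB inducer NCS for 30 min.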
TSHR antagonist: blocks TSH signaling through the human TSH receptor; P16473; TSHR-expressing cells, TSH-stimulated cAMP HTRF, 2 h; hits give low values; activity change, negative = inhibition, % at 11.5 µM; 330,000 compounds, 0.2% hits;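 active means activity change below a set negative limit, meaning inhibition stronger than a set level, cut at about -70% in these data; inconclusive means activity change between two set negative limits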; further: on the % scale 0 is the no-effect control and ±100 the full control effect
Target sequence (P16473 whole entry, looked up): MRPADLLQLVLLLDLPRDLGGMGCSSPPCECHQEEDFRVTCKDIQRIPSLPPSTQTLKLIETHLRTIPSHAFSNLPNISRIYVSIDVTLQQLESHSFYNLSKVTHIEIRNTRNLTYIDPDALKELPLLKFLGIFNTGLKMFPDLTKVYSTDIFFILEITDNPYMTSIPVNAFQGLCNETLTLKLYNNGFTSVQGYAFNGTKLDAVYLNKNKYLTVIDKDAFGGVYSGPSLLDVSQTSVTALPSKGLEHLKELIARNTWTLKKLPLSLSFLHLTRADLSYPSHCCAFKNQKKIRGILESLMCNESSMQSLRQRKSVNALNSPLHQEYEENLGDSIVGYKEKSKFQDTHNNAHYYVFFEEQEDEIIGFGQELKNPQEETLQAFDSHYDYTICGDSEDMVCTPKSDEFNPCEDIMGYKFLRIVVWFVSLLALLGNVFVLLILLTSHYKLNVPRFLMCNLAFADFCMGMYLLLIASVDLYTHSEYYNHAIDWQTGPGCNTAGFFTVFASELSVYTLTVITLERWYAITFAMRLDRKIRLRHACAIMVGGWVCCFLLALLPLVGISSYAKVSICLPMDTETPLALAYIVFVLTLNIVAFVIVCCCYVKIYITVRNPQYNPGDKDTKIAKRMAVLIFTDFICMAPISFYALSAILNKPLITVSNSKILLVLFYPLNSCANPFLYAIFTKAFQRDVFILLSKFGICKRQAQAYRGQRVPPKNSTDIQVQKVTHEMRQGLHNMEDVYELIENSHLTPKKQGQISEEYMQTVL
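Cell-based HTRF cAMP assay; TSHR cells + compound, TSH EC80 (4nM final), 2 h, 37 deg C. Lysis with anti-cAMP cryptate and cAMP-d2, 30 min RT, read 665/620 nm.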
Giardia killer: Giardia lamblia killing; 340,000 compounds, 0.15% hits; activity change, % at 7.66 µM, hits read low; Giardia lamblia trophozoite viability; AID 540267; in the data active means activity change below about -80%; inconclusive means between about -30% and that limit;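 further: parasites exposed to compound for two days anaerobically before the ATP read; on the % scale 0 is the no-effect control and ±100 the full control effect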
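Trophozoite viability was measured as ATP-dependent luminescence, read 15-30 min after reagent addition. Before that, parasites at 100 cells/well were exposed to compounds for 48 h, anaerobically, at 37 deg C.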
GALK inhibitor: inhibitors of human galactokinase. Potency, µM (series often up to 57.5 µM), without a hit: at the highest dose activity change, negative = inhibition, hits mostly inhibitors. Purified GALK, Kinase-Glo residual ATP luminescence. 270,000 compounds, 0.007% hits. P51570. AID 1868; further: potency means the concentration at half of the fitted maximal effect; on the % scale 0 is the no-effect control and ±100 the full control effect
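Luminescence from leftover ATP (Ultra-Glo luciferase/luciferin) served as read-out after a 1 h room-temperature reaction of 5 nM GALK with 35 uM ATP and 100 uM galactose.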
The depositor's hits bear a star; ? = inconclusive; nt = not tested or not shown; [ ] = another dose, or the depositor's remark. Unless noted, the call rests on the fitted dose curve; in most records, active means well fitted curve in the direction sought with a large enough effect; inconclusive means small, poorly fitted or top-dose-only effect, or another doubt; inactive means no such curve, though single readings can be large; an effect the other way counts as inactive or inconclusive. This is a subset, so the mix of outcomes need not match the whole.

SMILES	Coupling enz	Tb PFK inh	Chronic BCR inh	TCR act	KCNH2 WT inh	AT treatment	TSHR antagonist	Giardia killer	GALK inhibitor
COc1cccc(OCc2cc(/C=N/NC(=O)c3ccn[nH]3)ccc2OC)c1	0	-3%	?	0%	-5	4%	7	-8	-2%
O=C(NNC(=O)c1cc(-c2ccc(Cl)cc2Cl)nc2ccccc12)Nc1ccccc1	0	-1%	-12%	-5%	0	-10%	-16	-22	nt
Cc1ccc(C(=O)Nc2ccc3c(c2)C(=O)NC3=O)cc1	1	-4%	?	-5%	28	1%	12	7	nt
CCCc1cc(-c2[nH]ncc2-c2ccc3c(c2)OCCCO3)c(O)cc1OC	-13	-5%	?	nt	nt	-5%	5	nt	0%
CCOC(=O)C1CCCN(c2nc3ccccc3nc2C(C#N)C(=O)NCc2ccccc2)C1 (configuration not stated)	-1	-1%	24%	-3%	6	-8%	-11	-14	1%
Cc1nnc(NC(=O)CSc2nnc3c(n2)[nH]c2ccc(Br)cc23)s1	0	-2%	-7%	-6%	-2	-1%	-14	-9	4%
O=C1Nc2ccccc2C1(O)c1ccccc1O (configuration not stated)	0	-7%	-1%	2%	-9	-11%	8	-16	-2%
COc1ccccc1CNC(=O)C1CCC(CNS(=O)(=O)c2ccc(C)cc2)CC1 (configuration not stated)	-1	-4%	-4%	7%	-33	?	12	4	4%
Cc1c(C)n(CCc2ccccc2)c2ncnc(NN)c12	-1	-4%	0%	10%	4	11%	-3	?	3%
Cc1nc(N2N=C3/C(=C/c4ccc(F)cc4)CCCC3C2c2ccc(F)cc2)sc1C(=O)N(C)C (configuration not stated)	-4	-4%	?	-2%	-4	12%	44	6	0%
CCOC(=O)N1CCC(NC(=O)C2CCCN(Cc3nc(-c4ccc(CC)cc4)oc3C)C2)CC1 (configuration not stated)	4	-1%	-3%	-1%	42	9%	2	-2	2%
O=C(/C=C/c1ccccc1)NC(NC(=S)Nc1ccc(C(=O)O)cc1)C(Cl)(Cl)Cl (configuration not stated)	3	-3%	-1%	-5%[46.1 µM]	-8	8%	8	-24	-8%
C/C=C/c1ccc(OCC(O)CNCC(c2ccc(OC)cc2)N(C)C)c(OC)c1 (configuration not stated)	1	2%	1%	4%	-7	-23%	-2	-9	-1%
Cc1ccc(O)c(NC(=O)c2cc(-c3cccs3)on2)c1	2	6%	?	-1%	11	nt	-6	10	0%
CCOC(=O)c1cc(C#N)c(N2CCN(C)CC2)nc1-c1ccccc1	-1	0%	0%	7%	13	5%	14	-21	9%

2 of the compounds above, as labelled records:
SMILES: Cc1ccc(C(=O)Nc2ccc3c(c2)C(=O)NC3=O)cc1
  Coupling enz: 1; Tb PFK inh: -4%; Chronic BCR inh: ?; TCR act: -5%; KCNH2 WT inh: 28; AT treatment: 1%; TSHR antagonist: 12; Giardia killer: 7; GALK inhibitor: nt
SMILES: COc1ccccc1CNC(=O)C1CCC(CNS(=O)(=O)c2ccc(C)cc2)CC1 (configuration not stated)
  Coupling enz: -1; Tb PFK inh: -4%; Chronic BCR inh: -4%; TCR act: 7%; KCNH2 WT inh: -33; AT treatment: ?; TSHR antagonist: 12; Giardia killer: 4; GALK inhibitor: 4%

The listing continues.
SMILES	Coupling enz	Tb PFK inh	Chronic BCR inh	TCR act	KCNH2 WT inh	AT treatment	TSHR antagonist	Giardia killer	GALK inhibitor
COc1ccc(C(=O)Nn2c(C)nc3ccccc3c2=O)cc1OC	0	-12%	0%	2%	1	-5%	6	-17	-2%
CC(C)C1Nc2ccc(C(=O)NCCCN3CCOCC3)cc2NC1=O (configuration not stated)	-3	4%	-7%	0%	-7	0%	2	12	17%
Cn1c(-c2ccc(Cl)cc2)ccc(C#N)c1=O	4	-5%	4%	2%	-9	16%	11	2	1%
CC(C)NCC#CCOc1ccc(Cl)cc1	3	?	5%	-6%	nt	7%	-9	6	0%
O=C(NC(Nc1cc(C(F)(F)F)ccc1Cl)C(=O)c1ccccc1)c1ccccc1 (configuration not stated)	-3	-5%	10%	-20%	-14	3%	-22	3	1%
CCc1cc2cc(C(=O)Nc3ccc(F)cc3)sc2s1	0	5%	?	-2%[46.1 µM]	-1	-3%	-2	-2	-2%
Clc1ccc(OCc2cn3ccccc3n2)c2ncccc12	-9	-3%	?	-16%	-1	-6%[11.5 µM]	8	-6	4%
Cc1ccc(NC(=O)N/C=C/c2ccc(Cl)cc2)cc1	nt	1%	1%	8%	4	10%	42	-16	-2%
O=C(Cc1ccc(Cl)cc1)Nc1ccc(-c2cc3ccccc3oc2=O)c(Cl)c1	0	3%	-13%	3%[46.1 µM]	10	-5%	-12	12	-1%
COc1ccc(NC(=O)c2cccnc2Nc2ccccc2)cc1	2	-2%	?	1%	5	-2%	2	-3	-1%
CC(=O)Cc1nsc(NC(=O)c2cc(-c3ccc(Cl)c(Cl)c3)oc2C)n1	1	-11%	?	3%	5	-2%	0	-13	6%
O=C(CCn1c(=S)[nH]c2ccccc2c1=O)NCCc1ccc(Cl)cc1	7	-1%	0%	-21%	-7	-2%	-14	2	8%
CCN(CC)c1ccc2c(cc1=O)[C@@H](NC)CCc1cc(OC)c(OC)c(OC)c1-2	-4	-22%	?	-48%	-3	-1%	15	-4	2%
CCN(CC)CCn1c2ccccc2c2cnc(N)c(C#N)c21	3	-5%	?	3%	-4	-3%	12	-5	1%
COc1ccc(CCC(C)NC(=O)Cc2ccc(OC)c(OC)c2)c(OC)c1 (configuration not stated)	3	0%	-4%	4%	4	10%	8	11	-1%
CCc1cc(-c2[nH]ncc2-c2ccc3c(c2)OCO3)c(O)cc1O	-9	0%	?	3%	-1	1%	-37	9	-1%
CC(C)Cn1c(=O)c(C(=O)N/N=C/c2cccc(F)c2)c(O)c2ccccc21	2	3%	-4%	3%[46.1 µM]	15	6%	2	1	3%
Cc1ccc(Cc2cnc(N3C(=N)SC(c4ccccc4)C3=O)s2)cc1 (configuration not stated)	3	5%	9%	-1%[46.1 µM]	1	2%	-27	-6	1%
O=C(Cc1ccccc1)NCC(=O)OCC(=O)c1ccc(OC(=O)c2ccccc2)cc1	-3	-4%	15%	-1%	-18	6%	-5	-3	-1%
COc1ccccc1CNC(=O)N1CCN(S(=O)(=O)c2ccc(C)cc2)CC1	-2	-3%	-20%	-6%	0	2%	8	-4	0%
COc1ccc(NC(=S)Nc2cccc(Cl)c2)cc1OC	-2	-10%	?	1%	2	-1%	-5	6	3%
CN(C)S(=O)(=O)c1ccc(C(=O)NCCSc2ccc(Br)cc2)cc1	-3	4%	?	0%[46.1 µM]	-5	1%	1	23	0%
COc1ccc(CNCCC(c2ccc(OC(C)C)cc2)C(C)C)cc1OC (configuration not stated)	1	1%	?	-33%	33	0%	-12	-6	-1%
C/C(=N/NC(=O)c1ccc2c(c1)OCO2)c1ccc(NC(=O)C(F)(F)F)cc1	2	2%	?	4%[46.1 µM]	0	-2%	4	8	1%
O=C(NC1CCCc2ccccc21)c1ccccc1Br (configuration not stated)	6	0%	-7%	nt	-7	3%	-6	-11	-2%
Cc1ccc(NC(=O)CN2C(=O)N/C(=C/c3ccc(C)s3)C2=O)cc1	0	1%	15%	-7%[46.1 µM]	-13	1%	8	-3	2%
Cc1ccccc1OCC(O)CN1CCN(CC(O)COc2ccccc2C)C(C)C1 (configuration not stated)	2	4%	?	-4%	-20	3%	-2	5	3%
CCC(C)Nc1nc(N)c([N+](=O)[O-])c(NC2CCCCC2)n1 (configuration not stated)	0	7%	5%	-7%	-1	7%	21	4	-4%
Cc1ccc(-n2nc3c(c2NC(=O)c2ccc(Br)o2)CSC3)c(C)c1	-35*	-2%	5%	nt	5	-1%	-2	2	-1%
Cc1ccc(N(CC(=O)N/N=C/c2ccco2)S(=O)(=O)c2ccccc2)cc1	2	-5%	1%	4%	-2	8%	30	4	2%

Gathered by group, the entries above containing a thiophene ring, fused or not.
SMILES	Coupling enz	Tb PFK inh	Chronic BCR inh	TCR act	KCNH2 WT inh	AT treatment	TSHR antagonist	Giardia killer	GALK inhibitor
Cc1ccc(O)c(NC(=O)c2cc(-c3cccs3)on2)c1	2	6%	?	-1%	11	nt	-6	10	0%
CCc1cc2cc(C(=O)Nc3ccc(F)cc3)sc2s1	0	5%	?	-2%[46.1 µM]	-1	-3%	-2	-2	-2%
Cc1ccc(NC(=O)CN2C(=O)N/C(=C/c3ccc(C)s3)C2=O)cc1	0	1%	15%	-7%[46.1 µM]	-13	1%	8	-3	2%

(more compounds)
SMILES	Coupling enz	Tb PFK inh	Chronic BCR inh	TCR act	KCNH2 WT inh	AT treatment	TSHR antagonist	Giardia killer	GALK inhibitor
Cn1cc(C(=O)c2ccc(Cl)cc2Cl)cc1C(=O)O	0	1%	8%	4%	-31	-6%	-1	-9	-1%
O=C1CNC(=S)N1c1nc(-c2ccccc2)cs1	-2	0%	-10%	3%[46.1 µM]	7	-5%	10	21	-1%
CCOC(=O)c1cc(C#N)c(N2CCOCC2)nc1-c1ccccc1	2	-4%	0%	5%	-7	2%	-11	-4	7%
Cc1cc(C#Cc2c(-c3ccccc3)n(C)c3ccccc23)ccc1F	-2	3%	-1%	6%	-1	?	16	3	nt
O=C(N/N=C/c1coc2ccccc2c1=O)c1cc(O)cc(O)c1	-1	2%	?	-2%	15	5%	-5	-19	-4%
O=C(Nc1ccccc1)c1ccc(COc2ccccc2)cc1	1	3%	2%	-2%	2	-3%	17	6	4%
